miR-21 reporter: raises the signal of a miR-21 reporter; HeLa miR-21 FLuc reporter, luciferase, 48 h; Potency, µM (top dose mostly 38.3 µM), inactives show top-dose reporter change, positive = more light; 340,000 tested, under 10 active; active = well fitted rising curve with a large enough effect; inconclusive = small, poorly fitted or top-dose-only effect; inactive = no such curve, though single readings can be large or run the other way;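 further: % of control where 0% means no effect; miR-21 action dims this reporter so a rising signal means less miR-21 action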
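HeLa miR-21-FLuc reporter line, endogenous miR-21; 2000 cells/well in DMEM/10% FBS; compound titration up to ~40uM final, 48 h, 37 degree Celsius; luciferase detection reagent, 15 min lysis, CCD luminescence.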
GLA inh pH 4.5: blocks human alpha-galactosidase A at pH 4.5. 230,000 tested, under 10 active. purified enzyme, 4-MU-alpha-Gal fluorescence, pH 4.5. activity change, negative = inhibition, % at 105 µM. P06280; inconclusive = small, poorly fitted or top-dose-only inhibition, or a rising curve; inactive = flat fitted curve, though single readings scatter; no compound was filed as active;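 further: 0% = full activity with enzyme and -100% = basal without enzyme; dose as in the result columns while the protocol names 77 µM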
Rango release inh: prevents RanGTP from dissociating the Rango-importin beta complex; Potency, µM (series often up to 46.1 µM), for the others: at the highest dose activity change, negative = inhibition; O95149+P62826; 0.071% of 340,000 active; Biochemical FRET Rango-importin beta, RanGTP-induced dissociation; active means falling FRET ratio curve, often poorly fitted, with flat reads before Ran was added; inconclusive means other falling curves, or compound fluorescence or quenching; inactive means flat or rising ratio curve;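 further: potency means the concentration at half of the fitted maximal effect; % of control where 0% means no effect; nearly all actives have a fitted effect of over 45% in size; -100% = wells without RanGTP and RCC1; the record marks most hits as doubtful in a second field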
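Rango FRET biosensor (snurportin-1 IBB flanked by N-terminal EYFP and C-terminal CFP10) at 0.1 uM, with 0.25 uM importin beta in PBS, 1mM DTT, 0.02% Tween-20, 0.1% BSA. 0.6 uM Ran, 2mM GTP and 0.2 uM RCC1 were then added for 45 min at room temperature. Inhibition read as loss of FRET rise.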
Rango complex inh: Rango-importin beta binding inhibition | Q14974 | Rango CFP/YFP FRET sensor + importin beta, 45 min | Potency, µM (top dose mostly 92.2 µM), inactives show at the top dose inhibition of complex formation | 0.031% of 340,000 active | AID 540263; active = rising FRET ratio curve, often small or poorly fitted; inconclusive = mostly compound fluorescence or quenching in the first reads; inactive = flat curves in all reads;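 further: potency means the concentration at half of the fitted maximal effect; 0% = DMSO wells and 100% = buffer wells lacking importin beta; nearly all actives have a fitted effect of over 15% in size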
Target sequence (Q14974 whole entry, looked up): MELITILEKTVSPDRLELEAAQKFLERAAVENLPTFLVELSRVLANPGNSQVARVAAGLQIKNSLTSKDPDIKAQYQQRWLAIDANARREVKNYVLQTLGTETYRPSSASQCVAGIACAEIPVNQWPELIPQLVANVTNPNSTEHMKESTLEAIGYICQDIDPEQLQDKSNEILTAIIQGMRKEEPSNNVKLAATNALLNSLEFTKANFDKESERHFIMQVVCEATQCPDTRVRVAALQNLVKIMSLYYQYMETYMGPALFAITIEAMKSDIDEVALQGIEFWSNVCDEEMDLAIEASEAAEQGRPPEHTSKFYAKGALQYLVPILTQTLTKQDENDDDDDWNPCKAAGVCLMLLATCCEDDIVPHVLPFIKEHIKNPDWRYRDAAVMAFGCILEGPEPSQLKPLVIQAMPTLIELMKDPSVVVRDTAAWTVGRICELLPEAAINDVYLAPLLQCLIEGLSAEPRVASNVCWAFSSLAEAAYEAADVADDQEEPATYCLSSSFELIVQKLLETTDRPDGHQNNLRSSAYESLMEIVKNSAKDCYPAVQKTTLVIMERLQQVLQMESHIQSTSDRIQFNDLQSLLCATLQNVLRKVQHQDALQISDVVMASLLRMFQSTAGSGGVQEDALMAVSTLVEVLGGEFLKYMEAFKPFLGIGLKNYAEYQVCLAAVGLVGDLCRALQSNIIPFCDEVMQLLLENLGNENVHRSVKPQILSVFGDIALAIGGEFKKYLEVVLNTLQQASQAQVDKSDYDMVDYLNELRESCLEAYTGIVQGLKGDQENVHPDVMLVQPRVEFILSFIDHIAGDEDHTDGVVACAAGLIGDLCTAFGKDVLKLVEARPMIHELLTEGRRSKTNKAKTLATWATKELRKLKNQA
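FRET biosensor Rango (snurportin 1 IBB between N-terminal EYFP and C-terminal Cerulean), 50 nM in PBS/1 mM DTT/0.02% Tween-20/0.1% BSA, preincubated 5 min RT with compound; 0.125 microM importin beta added, 45 min RT, CFP/YFP FRET ratio read.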
An asterisk follows results filed as active; ? = inconclusive; . = no result given; & = joins results of further samples. These rows are one share of the data (hit frequency here may not be typical).

A first look:
mol | miR-21 reporter | GLA inh pH 4.5 | Rango release inh | Rango complex inh
O=C(COc1ccc2ccccc2c1)NCC1CCCO1 (centres undefined) | -18% | . | 10% | -0.6%
COc1cc(/C=N/n2cnc3scc(-c4cccs4)c3c2=O)cc(OC)c1OC | 0% | -1 | 1% | -0.6%
O=C(c1ccccc1)c1ccc(OCC(O)CN2CCCC2)cc1 (centres undefined) | -4% | 4 | 15% | -0.4%
CCc1ccc(NC(=O)NNC(=O)c2ccc3ccccc3c2O)cc1 | 0% | . | 5% | 3.7%
Cc1ccc(/C=N/N2CCN(Cc3ccc(C)cc3)CC2)cc1 | -3% | 4 | 10% | -0.8%
CCOC(=O)c1c(C)c(C(=O)Nc2cc(F)ccc2F)c(C)n1C | 0% | 9 | -6% | -3.6%
C[N+](C)(CC#Cc1ccccc1)CC(=O)c1ccc(Cl)cc1 | 3% | 1 | 10% | -3.3%
CCOC(=O)c1c(C)[nH]c(N=Nc2ccc(C)cc2)c1C | -53% | -8 | 17% | 1.9%
COc1ccc(OC)c2[nH]c(=O)c(CCNC(=O)C(C)(C)C)cc12 | -4% | 7 | -12% | -3.4%
CNC(=S)NNC(=O)c1c(C)nc2cc(C)ccn12 | -1% | 3 | -5% | 2.3%
COc1cccc2cc(C(=O)OCC(=O)N3CC(C)OC(C)C3)c(=O)oc12 (centres undefined) | . | . | 0% | 0.5%
O=C1OC(c2ccccc2)Cc2cc(C(=O)N3CCN(c4ccc(F)cc4)CC3)ccc21 (centres undefined) | . | . | -16% | -1.7%
CN(CC(=O)Nc1cccc(F)c1)C(=O)CCC1CCCCC1 | . | . | 0% | -2.8%
O=C(CCC(=O)N1CCc2ccccc2C1)N1CCN(S(=O)(=O)c2ccccc2)CC1 | -4% | 0 | -10% | -1.9%
O=c1c2ccccc2n(CC(O)CN2CCOCC2)c2ccccc12 (centres undefined) | 2% | . | ? | ?
COc1cc(NC(=O)c2ccccc2)cc(OC)c1 | -35% | 8 | -14% | -1.3%

All compounds of this part, from the start:
mol | miR-21 reporter | GLA inh pH 4.5 | Rango release inh | Rango complex inh
O=C(COc1ccc2ccccc2c1)NCC1CCCO1 (centres undefined) | -18% | . | 10% | -0.6%
COc1cc(/C=N/n2cnc3scc(-c4cccs4)c3c2=O)cc(OC)c1OC | 0% | -1 | 1% | -0.6%
O=C(c1ccccc1)c1ccc(OCC(O)CN2CCCC2)cc1 (centres undefined) | -4% | 4 | 15% | -0.4%
CCc1ccc(NC(=O)NNC(=O)c2ccc3ccccc3c2O)cc1 | 0% | . | 5% | 3.7%
Cc1ccc(/C=N/N2CCN(Cc3ccc(C)cc3)CC2)cc1 | -3% | 4 | 10% | -0.8%
CCOC(=O)c1c(C)c(C(=O)Nc2cc(F)ccc2F)c(C)n1C | 0% | 9 | -6% | -3.6%
C[N+](C)(CC#Cc1ccccc1)CC(=O)c1ccc(Cl)cc1 | 3% | 1 | 10% | -3.3%
CCOC(=O)c1c(C)[nH]c(N=Nc2ccc(C)cc2)c1C | -53% | -8 | 17% | 1.9%
COc1ccc(OC)c2[nH]c(=O)c(CCNC(=O)C(C)(C)C)cc12 | -4% | 7 | -12% | -3.4%
CNC(=S)NNC(=O)c1c(C)nc2cc(C)ccn12 | -1% | 3 | -5% | 2.3%
COc1cccc2cc(C(=O)OCC(=O)N3CC(C)OC(C)C3)c(=O)oc12 (centres undefined) | . | . | 0% | 0.5%
O=C1OC(c2ccccc2)Cc2cc(C(=O)N3CCN(c4ccc(F)cc4)CC3)ccc21 (centres undefined) | . | . | -16% | -1.7%
CN(CC(=O)Nc1cccc(F)c1)C(=O)CCC1CCCCC1 | . | . | 0% | -2.8%
O=C(CCC(=O)N1CCc2ccccc2C1)N1CCN(S(=O)(=O)c2ccccc2)CC1 | -4% | 0 | -10% | -1.9%
O=c1c2ccccc2n(CC(O)CN2CCOCC2)c2ccccc12 (centres undefined) | 2% | . | ? | ?
COc1cc(NC(=O)c2ccccc2)cc(OC)c1 | -35% | 8 | -14% | -1.3%
CCc1ccc(NC(=O)COC(=O)c2nc3nc(C)cc(C)n3n2)cc1 | . | . | -6% | 1.4%
COc1ccc(-n2cnnc2SCC(=O)NC2CCS(=O)(=O)C2)cc1 (centres undefined) | -4% | 9 | -12% | 0.3%
CCCC1CC(C)(/C(C)=N\NC(N)=S)OC1=O (centres undefined) | 10% | -5 | -13% | -3.4%
Cc1ccc(S(=O)(=O)NCCCCCC(=O)Nc2ccccc2C)cc1 | -1% | 5 | 21% | -2.4%
Cc1cc(N)n2nc(C)c(-c3ccccc3)c2n1 | -18% | 8 | 0% | 0.4%
Cc1cc(C)c(S(=O)(=O)Cc2ccccc2)c(=O)[nH]1 | 3% | 1 | 2% | 2.6%
CCN(Cc1ccncc1)C(=O)c1cc(COc2ccc(F)cc2F)on1 | -1% | . | 16% | -0.9%
COc1ccccc1NC1C=CS(=O)(=O)C1 (centres undefined) | 1% | 3 | -1% | -1.3%
COc1cc(/C=N/NC(=S)NC2CC3CC2C2C=CCC32)ccc1O (centres undefined) | -3% | -4 | -1% | -1.0%
O=[N+]([O-])c1ccc(N=Nc2c(Cl)cc(O)cc2Cl)cc1 | 29% | 3 | 32% | -0.2%
CCCCN(C(=O)C1CC(=O)N(Cc2ccc(C)cc2)C1)c1c(N)n(CC(C)C)c(=O)[nH]c1=O (centres undefined) | -1% | . | 7% | -0.5%
COc1ccccc1Nc1ncnc2sccc12 | -12% | . | ? | ?
CC(C)N(C(=O)Cn1cnc2c(cnn2-c2ccccc2Cl)c1=O)C(C)C | -30% | -1 | 6% | 3.0%
Cc1ccccc1NC(=O)Cn1c(C)nc2ccc(NC(=O)C3CC3)cc2c1=O | -11% | -1 | 39% | 5.8%
Cc1ccc(NC(=O)Cn2nnc(C(=O)NCCc3ccccc3)c2N)c(C)c1 | 3% | . | 1% | 1.8%
O=C(Nc1ccccc1C(=O)O)C1=NN=CC1 | -5% | . | 0% | 0.0%
COCCN(C(=O)CSc1nc2ccccc2c(=O)n1CC(C)C)c1c(N)n(Cc2ccccc2)c(=O)[nH]c1=O | -1% | 0 | -12% | 0.0%
C=CCn1c(CCC(O)CCCCC)n[nH]c1=S (centres undefined) | -5% | -18 | 2% | -14%
Oc1ccccc1N1CCN(Cc2ncc(-c3ccccc3)o2)CC1 | -17% | . | 1% | -0.1%
Cc1cc(F)ccc1Oc1cc(NN2CCCCC2)c([N+](=O)[O-])cc1[N+](=O)[O-] | 0% | . | -12% | 0.0%
CN(C)c1cccc(C(=O)N2CCC(n3nccc3NC(=O)C3CCOC3)CC2)c1 (centres undefined) | -4% | . | 6% | 4.2%
Cc1cc(C)c(S(=O)(=O)N2CCCCC2)c(C)c1N(C)S(=O)(=O)c1ccc(Cl)cc1 | -5% | 1 | 7% | 3.1%
Cc1c(C2(c3c(C)n(C)n(-c4ccccc4)c3=O)C(=O)Nc3ccc(F)cc32)c(=O)n(-c2ccccc2)n1C | 0% | 5 | -4% | -3.5%
CCCN(CC1CC1)C(=O)CCc1nnc(CCc2c[nH]c3ccccc23)o1 | -9% | 13 | -1% | -2.6%
N#CC1=CN(Cc2ccccc2)C=C(/C=N/Nc2ccccc2)C1 | -7% | -12 | ? | ?
Cc1cccc(NC(=O)CN2CCc3cc4c(cc3C2C)OCCCO4)c1 (centres undefined) | 13% | . | 10% | 1.2%
CCC(=O)Nc1ccc(S(=O)(=O)N2CCN(c3ccc(F)cc3)CC2)cc1 | -2% | -5 | -13% | 0.2%
CCOC(=O)N1C2=NC(C(=O)OC)=C(C(=O)OC)[C@@H]3Nc4ccccc4[C@]23C[C@H]1C(=O)OC | -2% | 7&5 | -15% | -1.4%
COC(=O)NNC1=CC(=O)CC(C)(C)C1 | -1% | 0 | -13% | -4.6%
Cc1cccc(C)c1OCc1nnc(SCC(=O)Nc2ccc(N3CCOCC3)cc2)o1 | 4% | . | 1% | -0.2%
COc1ccc(-c2cc(C(=O)N(C)CC(=O)Nc3cccc(F)c3)c3ccccc3n2)cc1 | . | . | 3% | -0.1%
CCCNC(=O)C(Cc1cccc(Cl)c1)NC(=O)c1ccccc1 (centres undefined) | . | . | -12% | 0.6%
COc1ccccc1NC(=O)Nc1ccc(-n2ccc(C(F)(F)F)n2)cc1 | -8% | 0 | 10% | -1.1%
O=C(Nc1ccc2c(c1)OCO2)C1CCN(C(=O)c2ccc(Br)cc2)CC1 | -22% | -2 | ? | -4.1%
Cc1ccc(C)c(NC(=S)N/N=C2/CCCCc3ccccc32)c1 | 0% | -3 | -5% | 0.2%
COc1ccc(C(=O)COC(=O)c2ccn(C)n2)cc1 | -49% | . | -5% | -2.9%
CCC1(c2ccc(F)cc2)NC(=O)N(CC(=O)N(CCC#N)c2ccccc2)C1=O (centres undefined) | 2% | . | 9% | -2.3%
COc1cccc(C2c3[nH]c4ccccc4c3C[C@H]3C(=O)N(c4ccccc4C(=O)NCCCN4CCOCC4)C(=O)N23)c1 (some centres undefined) | 12% | . | -18% | ?
CSc1sc(C(=O)NNC(C)=O)c2c1C1(CCC2)SCCS1 | 9% | -4 | -10% | ?
COc1ccc(OC)c(C2CC(=O)NC(SC)=C2C#N)c1 (centres undefined) | -7% | 6 | -16% | -1.1%

Next section.
mol | miR-21 reporter | GLA inh pH 4.5 | Rango release inh | Rango complex inh
COc1ccc(N(CC(=O)NCc2ccccc2C)S(=O)(=O)c2ccccc2[N+](=O)[O-])c(OC)c1 | 8% | -2 | 0% | -2.2%
COC(=O)c1ccc(/C(O)=C(\C#N)c2nc3ccccc3s2)cc1 | -30% | 1 | -19% | -0.4%
CC(CCc1ccccc1)NC(=O)c1ccc(C(=O)NC(C)CCc2ccccc2)cc1 (centres undefined) | 7% | 8 | 4% | 0.7%
CCCCC(=O)Nc1ccc2c(c1)oc1ccccc12 | -65% | -1 | -9% | 1.3%
CCc1ccc(S(=O)(=O)/N=C2\C=C(NS(=O)(=O)c3ccccc3)C(=O)c3ccccc32)cc1 | -31% | . | 8% | -0.8%
Cc1c(Br)c([N+](=O)[O-])nn1C(C)C(=O)Nc1ccc2c(c1)OCO2 (centres undefined) | -14% | 5 | 7% | 13%
CCCC(=O)N1CCCC(C(=O)c2ccc(OC)c(OC)c2)C1 (centres undefined) | 2% | . | 32% | 0.6%
CCOC(=O)c1c(C)n(C)c2ccc(OC(C)C(=O)OC)cc12 (centres undefined) | 2% | -7 | 11% | 2.0%
CC(OC(=O)c1ccc2c(=O)n3c(nc2c1)CCC3)C(=O)Nc1ccc(C(N)=O)cc1 (centres undefined) | . | . | -16% | -3.2%
COc1ccc(-c2nnc(-c3cccs3)o2)cc1OC | -72% | 2 | -1% | 5.1%
CCS(=O)(=O)N1CCC(C(=O)NCc2cc(OC)ccc2OC)CC1 | 2% | 4 | -9% | 3.3%
CCOC(=O)N1CCN(c2c(N3CCN(c4cccc(C(F)(F)F)c4)CC3)c(=O)c2=O)CC1 | -3% | 11 | -10% | -1.8%
Cc1cc(=O)oc2cc(OCC(=O)N3CCC(C(N)=O)CC3)ccc12 | 3% | . | 21% | 0.0%
CCCn1nc(C(=O)NNC(=O)CSC(C)C(=O)Nc2cc(C)on2)c2ccccc2c1=O (centres undefined) | 0% | . | 1% | -0.2%

From PubChem BioAssay
